hNpr1 antagonist – antagonists of human natriuretic peptide receptor Npr1; P16066; HEK293 hNpr1 GloSensor cGMP, ANP-stimulated luminescence; Potency, µM (highest dose often 46.3 µM), for the others: at the highest dose activity change, negative = inhibition, usual class: inhibitors; actives 1.6% (n = 76,000); AID 1347048; active = well fitted inhibition curve with a large enough effect; inconclusive = small, poorly fitted or top-dose-only effect; inactive = no such curve, though single readings can be large or run the other way;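 also: nearly all actives have a fitted effect of over 60% in size; nearly all hits also lower the signal before the agonist is added; a reference antagonist and vehicle were the controls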
Target sequence (P16066 whole entry, looked up): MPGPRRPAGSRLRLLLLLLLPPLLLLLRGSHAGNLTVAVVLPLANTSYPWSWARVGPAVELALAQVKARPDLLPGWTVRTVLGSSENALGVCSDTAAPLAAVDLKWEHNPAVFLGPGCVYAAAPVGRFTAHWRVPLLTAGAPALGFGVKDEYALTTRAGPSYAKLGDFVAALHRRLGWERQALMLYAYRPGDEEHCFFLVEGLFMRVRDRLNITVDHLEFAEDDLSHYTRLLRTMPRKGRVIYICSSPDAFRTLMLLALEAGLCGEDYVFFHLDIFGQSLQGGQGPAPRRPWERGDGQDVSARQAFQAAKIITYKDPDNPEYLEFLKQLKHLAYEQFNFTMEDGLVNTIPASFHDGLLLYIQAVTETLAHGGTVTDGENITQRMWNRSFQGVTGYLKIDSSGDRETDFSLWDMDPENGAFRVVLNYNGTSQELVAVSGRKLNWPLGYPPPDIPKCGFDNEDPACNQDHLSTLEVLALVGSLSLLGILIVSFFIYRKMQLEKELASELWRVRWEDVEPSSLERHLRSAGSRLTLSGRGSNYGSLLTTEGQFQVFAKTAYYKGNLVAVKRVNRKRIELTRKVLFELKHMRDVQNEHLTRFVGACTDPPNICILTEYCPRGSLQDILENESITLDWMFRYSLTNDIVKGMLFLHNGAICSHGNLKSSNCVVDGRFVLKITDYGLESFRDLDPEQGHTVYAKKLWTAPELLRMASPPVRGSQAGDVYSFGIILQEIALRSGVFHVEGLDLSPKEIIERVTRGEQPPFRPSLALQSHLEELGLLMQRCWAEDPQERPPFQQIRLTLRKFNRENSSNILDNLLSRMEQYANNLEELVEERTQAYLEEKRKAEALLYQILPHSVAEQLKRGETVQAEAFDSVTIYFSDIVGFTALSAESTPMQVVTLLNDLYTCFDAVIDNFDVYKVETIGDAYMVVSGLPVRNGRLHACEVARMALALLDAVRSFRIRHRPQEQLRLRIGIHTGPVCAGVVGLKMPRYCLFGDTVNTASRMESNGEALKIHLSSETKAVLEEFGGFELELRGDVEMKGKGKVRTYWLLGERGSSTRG
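HEK293 cells stably expressing human Npr1 and cGMP GloSensor pGS-40F, loaded 2 h with 2% GloSensor reagent, given compound 30 min at room temperature. Luminescence read before and 20 min after 0.1 nM hNppA.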
The depositor's hits bear a star; [ ] = dose if it differs, or a comment. % is scaled to controls: 0 for no effect and ±100 for the full control effect; potency is read from the fitted curve at half-maximal effect. Only part of the results is shown (hit frequency here may not be typical).

`COc1cccc(CN(C)C2CCCc3ccccc32)c1` (stereo unspecified) gave hNpr1 antagonist 3.2%[70.6 µM].
CN1[C@@H](CCC(=O)N2CCOCC2)CNC(=O)[C@@H]2[C@H]1CCN2Cc1cccs1 was read as hNpr1 antagonist -4.7%[70.6 µM].
Screening COc1ccc(N2CCN(C(=O)c3ccc4c(c3)C(O)CCCCCN4C)CC2)cc1 (stereo unspecified) returned hNpr1 antagonist inconclusive.
Screening O=C(c1ccc2cc[nH]c2c1)N1CCC(N2CC(OCC3CC3)C23CCCCC3)CC1 (stereo unspecified) returned hNpr1 antagonist 1.8%.
COc1ccc(NC(=O)CN2C(=O)NC3(CCCCC3)C2=O)cc1Cl was read as hNpr1 antagonist -21.7%.
Cc1ccccc1NC(=O)CN1C(=O)NC2(CCC(C)CC2)C1=O (stereo unspecified) was read as hNpr1 antagonist 0.0%.
For O=C1NCCCCCCN(Cc2ccncc2)[C@@H]2CN(S(=O)(=O)c3ccc4c(c3)CCC4)CC[C@H]12 the results were hNpr1 antagonist -17.4%.
Cc1ncsc1CN1CCC2(CC1)CN(C1CCC1)CC2CO (stereo unspecified) was read as hNpr1 antagonist -3.0%.
Screening O=C(c1ccco1)N1CCCCCC1c1nnc(-c2ccccc2)o1 (stereo unspecified) returned hNpr1 antagonist 6.1%.
Cn1nc2n(c1=O)CCNCC2 was read as hNpr1 antagonist 5.2%.
Screening CS(=O)(=O)N1CCCCCCn2c(nnc2-c2ccc(F)cc2)CC1 returned hNpr1 antagonist -2.2%.
`C[C@]1(O)CCN(C(=O)Cc2nc(-c3ccncc3)n[nH]2)C[C@@H]1O` gave hNpr1 antagonist 0.0%.
For CCOc1ccc(C(=O)N2CCCC3(C2)Nc2cccnc2NC3=NC2CCCC2)cc1 (stereo unspecified) the results were hNpr1 antagonist -8.5%.
`O=C1CCCCN1CCCC(=O)N1CCOC(CC2CCCCC2)C1` (stereo unspecified) gave hNpr1 antagonist 2.7%.
For CCCn1cc2c3c(cccc31)CN(C(=O)COc1ccc(F)cc1)CC2 the results were hNpr1 antagonist -22.1%.
`CNC(=O)[C@@H]1C[C@H](Oc2ccccc2)CN1S(=O)(=O)c1cccnc1` gave hNpr1 antagonist 4.4%.
Screening Cc1ccc(NC(=O)[C@@H]2CNC[C@H](C(=O)N3CCN(CCO)CC3)C2)cc1 returned hNpr1 antagonist 1.3%.
Screening CCCCS(=O)(=O)N1CCC2(CCC(=O)N(Cc3ccccc3)C2)CC1 returned hNpr1 antagonist -1.0%.
For CCC1(CC)CCN(C(=O)C2CCC(=O)N(Cc3ccccc3OC)C2)C1 (stereo unspecified) the results were hNpr1 antagonist 4.5%.
CCCN(CC1CCOC1)C(=O)Nc1cccc(F)c1 (stereo unspecified) was read as hNpr1 antagonist -0.8%.
Screening CN(Cc1cc(C[C@@H]2C[C@H](NC(=O)C(C)(C)C)C2(C)C)no1)c1ccccc1 returned hNpr1 antagonist inconclusive.
Cn1nccc1-c1ccc2ncn(Cc3ccccc3)c(=O)c2n1 was read as hNpr1 antagonist 1.2%[70.6 µM].
`Clc1cccc(CN2CCOC[C@H](Oc3cccnc3)C2)c1` gave hNpr1 antagonist -3.7%[70.6 µM].
Screening Cc1nn(Cc2ccccc2)c(C)c1[C@@H]1C=C[C@@H](NC(=O)Nc2ccccc2)C1 returned hNpr1 antagonist -21.2%[70.6 µM].
Screening O=C(CC1CC1)N[C@@H]1CN(Cc2ccccc2)C[C@H]1CO returned hNpr1 antagonist 3.2%.
Screening O=C(NCCn1cccc1-c1nc(-c2ccccc2)no1)c1ccccc1F returned hNpr1 antagonist 1.2%.
Screening Cc1cc(NC(=O)CN2C(=O)NC(c3ccccc3Cl)C3=C2COC3=O)ccc1Br (stereo unspecified) returned hNpr1 antagonist -21.8%.
`CC(C)c1noc(-c2cn(C3CCCN(C(=O)c4ccoc4)C3)nn2)n1` (stereo unspecified) gave hNpr1 antagonist -3.8%.
`COc1ccccc1CCC(=O)N1[C@@H]2CC[C@H]1CC(NC(=O)c1cnc(C)cn1)C2` (stereo partly specified) gave hNpr1 antagonist -3.6%.
Screening Cc1ccc(-n2c(C3CCN(C(=O)CCc4ccccc4)CC3)n[nH]c2=O)cc1 returned hNpr1 antagonist -1.0%.
For Cc1cccc(CC(=O)N2CCC(c3n[nH]c(=O)n3-c3ccccc3)CC2)c1 the results were hNpr1 antagonist 12.1%.
CC(=O)N[C@@H]1CN(C(=O)CCCc2ccc(F)cc2)C[C@H]1C(C)C was read as hNpr1 antagonist 3.2%.
For CCC1=NOC(Cn2c(=O)n(CCc3ccccn3)c3ncc(C(=O)O)cc32)C1 (stereo unspecified) the results were hNpr1 antagonist -2.7%.
Screening CC(=O)c1cc(CN2CCN(c3nnc(C(F)(F)F)s3)CC2)cs1 returned hNpr1 antagonist -6.2%.
COCCN1CCOC[C@H]2CCN(C(=O)c3sc(C)nc3C)C[C@H]21 was read as hNpr1 antagonist 7.9%.
CN1CCN(CCNC(=O)CCc2ccc3c(c2)CN(S(C)(=O)=O)CCO3)CC1 was read as hNpr1 antagonist 2.7%.
O=C1NCC2(CCN(C(=O)c3cn(CCC4CCCCN4)nn3)CC2)O1 (stereo unspecified) was read as hNpr1 antagonist -3.4%.
Cc1noc2c(NCc3ccccc3)cc(-c3ccccc3)nc12 was read as hNpr1 antagonist 1.2%[70.6 µM].
`CC1=C[C@@H](CNC(=O)CC(C)(C)CC(=O)O)[C@H](C(C)C)C[C@H]1Cc1nc2ccc(C)cc2[nH]1` gave hNpr1 antagonist -0.7%.
N#Cc1cccc(-c2cn3c(n2)N(C(=O)c2ccco2)CCC3)c1 was read as hNpr1 antagonist -2.4%.

5 entries drawn at random from those above, as already listed:
CN1CCN(CCNC(=O)CCc2ccc3c(c2)CN(S(C)(=O)=O)CCO3)CC1 was read as hNpr1 antagonist 2.7%.
`CC1=C[C@@H](CNC(=O)CC(C)(C)CC(=O)O)[C@H](C(C)C)C[C@H]1Cc1nc2ccc(C)cc2[nH]1` gave hNpr1 antagonist -0.7%.
Screening Cc1nn(Cc2ccccc2)c(C)c1[C@@H]1C=C[C@@H](NC(=O)Nc2ccccc2)C1 returned hNpr1 antagonist -21.2%[70.6 µM].
`CC(C)c1noc(-c2cn(C3CCCN(C(=O)c4ccoc4)C3)nn2)n1` (stereo unspecified) gave hNpr1 antagonist -3.8%.
Screening O=C(CC1CC1)N[C@@H]1CN(Cc2ccccc2)C[C@H]1CO returned hNpr1 antagonist 3.2%.

Continued:
O=C(C1CC(=O)N(c2n[nH]c3ccccc23)C1)N1CCN(CCc2ccncc2)CC1 (stereo unspecified) was read as hNpr1 antagonist 6.8%.
`CN(CC1CCOCC1)S(=O)(=O)c1cc(F)ccc1F` gave hNpr1 antagonist -12.7%.
`Fc1ccc(-c2cnc([C@@H]3COCCN3CC3CC3)[nH]2)cc1` gave hNpr1 antagonist -1.8%[70.6 µM].
`CC(=O)N1C[C@@H]2CCCN3CCC[C@@H]([C@H]23)[C@H]1CCCC(=O)NCc1cc(F)cc(F)c1` gave hNpr1 antagonist -6.9%.
Screening CC(Cn1cccn1)C(=O)N1CCC2(CC1)Nc1ccccc1NC2=O (stereo unspecified) returned hNpr1 antagonist 1.2%.
`O=C(NCCc1cccs1)C1CCN(c2cc(C(F)(F)F)ncn2)CC1` gave hNpr1 antagonist -24.7%.
Screening COc1cccc(CN2CCN3C(=O)N(C4CCCCC4)C[C@H]3C2)c1 returned hNpr1 antagonist 0.7%[70.6 µM].
`CC1CCN(C(=O)C2CCCN(c3cnn(C)c(=O)c3)C2)CC1` (stereo unspecified) gave hNpr1 antagonist -7.0%.
`Cn1nc(-c2nncn2CC2CC2)c2c1CCN(C(=O)c1nn(C)c3ccccc13)C2` gave hNpr1 antagonist 4.1%.
COc1ccc(C(=O)NC[C@H]2O[C@@H](CC(=O)N3CCN(c4ccccn4)CC3)[C@H](O)[C@@H]2O)cc1 was read as hNpr1 antagonist -0.5%.
For O=C1CCN(S(=O)(=O)c2ccccc2)CCCN(C(=O)c2cccs2)CCN1 the results were hNpr1 antagonist -2.6%.
For O=C1CCN(S(=O)(=O)c2ccccc2)CCCN(C(=O)NCCc2ccccc2)CCN1 the results were hNpr1 antagonist 2.5%.
Screening Cc1cc(C)n(CCCC(=O)N2C[C@H](CO)C[C@H](CN(C)C)C2)n1 returned hNpr1 antagonist 3.5%.
Screening COCc1cc(C[C@H]2CNCC[C@H]2CC(=O)N(C)Cc2ccccc2)no1 returned hNpr1 antagonist -1.6%[70.6 µM].
Screening Cc1cc(C)c(CNC(=O)C2CCCN(c3cnn(Cc4ccccc4)c(=O)c3)C2)c(C)c1 (stereo unspecified) returned hNpr1 antagonist 6.7%.
Screening CC1CCN(S(=O)(=O)N2CCC(C(=O)N3CCCC3c3nc(C4CCOCC4)no3)CC2)CC1 (stereo unspecified) returned hNpr1 antagonist -10.9%.
Screening Cn1ncc(N2CCC(C(=O)Nc3ccccc3)C2)cc1=O (stereo unspecified) returned hNpr1 antagonist -2.9%.
For Cc1nn2c(NCCc3ncc[nH]3)cc(-c3ccccc3)nc2c1C the results were hNpr1 antagonist 3.4%.
For Cc1ccc(NC(=O)Cn2nc3c(cc2=O)CCCCC3)c(Cl)c1 the results were hNpr1 antagonist -0.9%.
CC(C)NC(=O)N1CCC2(CC1)CC(N1CCOCC1)CCO2 (stereo unspecified) was read as hNpr1 antagonist 2.1%.
CCNC(=O)N1CCCC(c2noc(COc3ccccc3F)n2)C1 (stereo unspecified) was read as hNpr1 antagonist 1.2%.
`CNC(=O)CCn1ncc2cc(OC3CCc4cccc(-c5ccnn5C)c43)ccc21` (stereo unspecified) gave hNpr1 antagonist 4.7%[70.6 µM].
`Cc1ccc(CN2CCC3(CC2)C(=O)NCN3Cc2ccc(Cl)cc2)cc1` gave hNpr1 antagonist inconclusive.
CCOc1cc(=O)n2c(c1C(=O)NCc1ccc(F)cc1Cl)CCCC2 was read as hNpr1 antagonist 1.6%.
For CN(CC(=O)N1CCn2nc(Cc3ccccc3)cc2C1)Cc1ccncc1 the results were hNpr1 antagonist 2.6%.
Screening O=C1NCN(Cc2ccc(Cl)cc2)C12CCN(Cc1ccncc1)CC2 returned hNpr1 antagonist -24.8%.
For CCn1nccc1C(=O)N1CCC(C(=O)N2CCCCCCNC(=O)CC2)CC1 the results were hNpr1 antagonist -1.6%.
For Cc1noc(C)c1CC(=O)N1CCC(OCC2CC2)C1 (stereo unspecified) the results were hNpr1 antagonist -2.7%.
For CCC1c2nccn2CCCN1C(=O)c1ccc2ncccc2c1 (stereo unspecified) the results were hNpr1 antagonist 2.2%.
Screening O=C(c1ccccc1OCC1CCCNC1)N1CCCC1 (stereo unspecified) returned hNpr1 antagonist -0.6%.
Screening Cc1nc([C@H]2CCN(Cc3cccc(OC(F)(F)F)c3)C[C@H]2NC(=O)C2CC2)n[nH]1 returned hNpr1 antagonist 2.4%.
Screening O=C(Cc1ccccc1)Nc1ccc([C@H]2OCC(=O)N[C@@H]2CO)cc1 returned hNpr1 antagonist -0.6%[70.6 µM].
Screening Cc1cccc(C(=O)N2CCC3(CC2)CC(CC(=O)NCc2ccncc2)CCO3)c1 (stereo unspecified) returned hNpr1 antagonist -0.1%.
O=C1NC2(CCCN(C(=O)Cc3ccccc3)C2)COc2ccccc21 (stereo unspecified) was read as hNpr1 antagonist 1.3%.
`Cc1nc(-c2c3n(c(=O)n(CC(=O)Nc4cc(F)ccc4F)c2=O)CCCC3)no1` gave hNpr1 antagonist -6.5%.
Screening CSCCC(=O)N1CCOC(Cc2cccc3ccccc23)C1 (stereo unspecified) returned hNpr1 antagonist 3.0%.
For CN(C)C(=O)c1cccnc1OC1CCN(C(=O)c2ccc(F)cc2)C1 (stereo unspecified) the results were hNpr1 antagonist 0.9%.
`CC(C)(O)CCc1cccc(C(=O)N2CCC(Nc3ncccn3)CC2)c1` gave hNpr1 antagonist -7.7%.
Screening CCCc1noc(-c2cn(C3CCN(C(=O)Cc4cccc(OC)c4)CC3)nn2)n1 returned hNpr1 antagonist -24.0%.
Screening O=C(N[C@@H]1CN(C(=O)c2cccc3[nH]ccc23)CC[C@@H]1CO)C1CC1 returned hNpr1 antagonist 13.5%.
`O=C1CC2(CCN(Cc3cccnc3)CC2)Oc2cc(Cl)ccc21` gave hNpr1 antagonist 0.0%.
For Cn1cc(CC(=O)N2CCCc3ncc(C(=O)NCc4cccc(F)c4)cc32)c2ccccc21 the results were hNpr1 antagonist -15.4%.
`CC1=C[C@@H](CC#N)[C@H](C(C)C)C[C@H]1CC(=O)N(C)Cc1cccnc1` gave hNpr1 antagonist -23.4%[70.6 µM].
`CC(=O)N1CCN(c2cc(-c3noc([C@@H]4CCCN4Cc4ccccc4)n3)ccn2)CC1` gave hNpr1 antagonist -7.9%[70.6 µM].
For CS(=O)(=O)N1CCCC(C(=O)Nc2ccc(F)cc2F)CCNC(=O)CC1 (stereo unspecified) the results were hNpr1 antagonist 7.8%.
O=C(c1n[nH]c2c1CCCC2)N1CCC2(CC1)NC(=O)N(c1ccc(F)cc1)N2 was read as hNpr1 antagonist -3.0%.
For O=C(C[C@H]1NC(=O)c2ccccc2NC1=O)Nc1nc(-c2cccs2)cs1 the results were hNpr1 antagonist -11.5%.
Screening COc1ncc(-c2nccc3c(=O)cc(N(C)c4ccccc4)oc23)cn1 returned hNpr1 antagonist 0.8%[70.6 µM].
Screening COCCN1CCC(N2CCN(C(=O)c3ccc(F)cc3F)CC2)C1=O (stereo unspecified) returned hNpr1 antagonist 5.0%.
Screening O=C(NCc1cccnc1)[C@@H]1C[C@@H](O)CN1C1CCN(C(=O)CCC2CCCC2)CC1 returned hNpr1 antagonist 9.6%.
For O=C(C1CCC1)N1CCCC1c1nc(C2CCOCC2)no1 (stereo unspecified) the results were hNpr1 antagonist 22.0%.
For CCCS(=O)(=O)N1CC(Oc2ccc(-c3noc(-c4cccnc4)n3)cc2)C1 the results were hNpr1 antagonist 14.1µM*.
